UCH37 inh: blocks the human deubiquitinase UCH37; purified proteasome/UCH37, Ub-AMC cleavage fluorescence; inhibition, % (no concentration beside the values); 330,000 compounds, 0.33% hits; AID 588478;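 active = mean of two replicates above 20%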;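 also: 0% = compound-free wells with enzyme and 100% = wells lacking proteasome; stock transfer was 100 nL into about 20 µL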
Target sequence (Q9Y5K5 whole entry, looked up): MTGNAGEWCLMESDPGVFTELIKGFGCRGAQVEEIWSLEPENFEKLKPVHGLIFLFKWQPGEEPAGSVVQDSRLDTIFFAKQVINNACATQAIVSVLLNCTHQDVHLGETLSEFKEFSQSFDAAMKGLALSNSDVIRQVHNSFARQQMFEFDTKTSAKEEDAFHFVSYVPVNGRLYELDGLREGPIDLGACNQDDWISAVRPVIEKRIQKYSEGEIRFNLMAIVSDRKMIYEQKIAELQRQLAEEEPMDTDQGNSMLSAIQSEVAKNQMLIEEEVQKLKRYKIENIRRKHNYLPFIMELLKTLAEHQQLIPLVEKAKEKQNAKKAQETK
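System: Proteasome-associated human UCH37 deubiquitinase; Input: 0.15 nM proteasome in added enzyme buffer; Also added: Ub-AMC substrate from 1 µM stock; Incubation: 30 min compound-proteasome preincubation then 25 min substrate reaction, room temperature; Detection: fluorescence, ex 355 nm, em 460 nm; Read-out: % inhibition of Ub-AMC cleavage fluorescence; Benchmarks: no-proteasome and no-compound wells.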
E coli growth: blocks Escherichia coli growth | OD600, 23 h; stronger effect = lower value | OD600 absorbance (test concentration not listed) | 330,000 compounds, 0.21% hits;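 active = OD600 absorbance below the run mean of sample wells minus 3.6 SD, in any replicate, cut at about 0.56 in these data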;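 also: stock transfer was 300 nL into about 60 µL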
FGF22 binding: shifts melting point of recombinant human FGF22. Q9HCT0. recombinant FGF22 thermal shift, SYPRO orange fluorescence; percent of sucrose octasulfate shift, DMSO zero. calls only at 9.99 µM. 340,000 compounds, 1.5% hits;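 active = melting point raised past a set limit in the mean and every replicate; three in four hits are not shown here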
Target sequence (Q9HCT0 whole entry, looked up): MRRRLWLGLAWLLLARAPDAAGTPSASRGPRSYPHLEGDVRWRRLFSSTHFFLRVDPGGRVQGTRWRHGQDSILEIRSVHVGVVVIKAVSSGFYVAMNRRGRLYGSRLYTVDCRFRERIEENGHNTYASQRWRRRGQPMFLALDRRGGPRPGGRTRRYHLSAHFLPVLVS
Ecoli rRNA inh: inhibits bacterial ribosomal RNA function over humanized ribosomes | E. coli WT GFP vs humanized-ribosome RFP mutants, fluorescence, 24 h; stronger effect = lower value; DMSO median 0, no signal -100 | GFP signal change (wild-type ribosome), % (concentration not given with the values) | 350,000 compounds, 1.6% hits | AID 720706;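 active = significant combined selectivity score with lowered wild-type GFP, culture density cut under 30%, mutant RFP and density less affected; inactive = any of these conditions unmet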; also: one replicate is shown; some compounds called inactive have numbers as strong as hits
ALR H2O2 inh: inhibitors of human sulfhydryl oxidase ALR; inhibition, % (concentration not given with the values); P55789; purified ALR, DTT oxidation, H2O2 HRP-luminol luminescence; 290,000 compounds, 3.8% hits;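 active = mean and each replicate at 75% or more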;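 also: stock transfer was 7.5 nL into about 7.5 µL; 0% = neutral wells and 100% = wells with inactivated enzyme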
Target sequence (P55789 whole entry, looked up): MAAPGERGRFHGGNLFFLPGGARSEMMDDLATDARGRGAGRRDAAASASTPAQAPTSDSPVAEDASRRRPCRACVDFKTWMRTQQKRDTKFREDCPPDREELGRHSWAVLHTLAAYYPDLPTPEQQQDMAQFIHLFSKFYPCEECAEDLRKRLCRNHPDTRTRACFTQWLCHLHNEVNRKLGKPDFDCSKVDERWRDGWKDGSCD
HNF4A DNA FP: change in binding of human HNF4 alpha to DNA; P41235; HNF4a-FITC DNA binding, fluorescence polarization, 1 h; activity change, % at 10 µM; 360,000 compounds, 0.3% hits; AID 1224865; in the data active = activity change above about 30%, passing the limit was not always enough;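 also: controls were the assay level and a saturating level of protein; the project sought stronger binding though the title names inhibitors; some compounds called inactive have numbers as strong as hits; positive values seem to mean higher polarization but the record does not say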
Beta2AR agonist: human beta-2 adrenergic receptor agonism by FAP; Am2.2-beta2AR cells, FAP receptor internalization, flow cytometry; reference of the scale not given here; AID 504454; response, % (concentration not given with the values); 340,000 compounds, 0.43% hits; P07550;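 active = response above a set limit, near 3 SD of response in nonfluorescent compounds, cut at about 42% in these data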;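 also: stock transfer was 100 nL into about 11 µL; a reference agonist was the positive control; negative values mostly stem from fluorescent compounds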
Ecoli rRNA inh OD600: recorded beside Ecoli rRNA inh, whose call it bears; OD600 change, %; measured here: OD600 growth;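 optical density of the mix in the first replicate; 0 = DMSO median and -100 = no signal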
Ecoli rRNA inh RFP: second read-out of Ecoli rRNA inh, no call of its own (marks repeat the call); RFP signal change, %; measured here: RFP humanized mutant strains;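 first replicate; 0 = DMSO median and -100 = no signal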
The depositor's hits bear a star; i = inactive; / = not tested or not shown. The list is partial (hit frequency here may not be typical).

Below each SMILES: UCH37 inh	E coli growth	FGF22 binding	Ecoli rRNA inh	Ecoli rRNA inh OD600	Ecoli rRNA inh RFP	ALR H2O2 inh	HNF4A DNA FP	Beta2AR agonist
#1 CC1C(=O)N2CCCc3cc(S(=O)(=O)N4CCC(C(N)=O)CC4)cc1c32 (stereo not drawn)
→ -4.1	0.58	i	20	18	1.8	-3	-1.6	5
#2 O=C(CCNS(=O)(=O)c1ccccc1)N1CCOCC1
→ 4.7	0.73	i	2	9	1.9	0	-0.8	3
#3 COc1cc(NC(=O)CSc2nnc3ccccn23)cc(OC)c1OC
→ /	/	i	0	19	0.1	/	-5.2	/
#4 CCC(=O)NC(C)c1cc(Cl)c2ccccc2c1O (stereo not drawn)
→ -3.5	0.69	i	14	-1	-0.3	10	-1.9	2
#5 CC(=O)c1ccc(N2CCN(S(=O)(=O)c3cn(C)cn3)CC2)cc1
→ 2.3	0.65	i	2	1	-1.0	-1	-1.5	3
#6 COc1ccccc1Cc1c(-c2ccc(OC)c(OC)c2)nc2ccc(C)cn12
→ /	/	i	-8	-18	-1.1	/	-1.1	/
#7 O=C(COC(=O)C1CCN(S(=O)(=O)c2cccs2)CC1)Nc1ccc(F)cc1Cl
→ 0.6	0.65	i	-10	-9	8.8	7	1.4	-3
#8 COc1ccc(S(=O)(=O)Nc2ccc(O)c3ccccc23)cc1
→ -0.3	0.64	/	/	/	/	89*	2.9	39
#9 COc1ccc(NC(=O)CCN2CCCCC2)cc1
→ 5.8	0.67	i	11	12	-7.4	-4	2.2	-13
#10 FC(F)(F)c1ccc(-c2noc(CN3CCCN(C4CCCCC4)CC3)n2)cc1
→ /	/	i	2	-2	-4.0	11	3.9	-4
#11 COc1ccc(S(=O)(=O)N2CCC(C(=O)NC3CCCC3)CC2)cc1C
→ 1.3	0.67	i	11	15	2.7	0	-0.3	-3
#12 CN1C(C(=O)NCCc2cccs2)CC2Cn3c(nc4ccccc43)C21 (stereo not drawn)
→ 0.3	0.71	i	-4	-11	-1.0	/	-0.5	-16
#13 CCCCCCn1c(N)c(C#N)c2ccc([N+](=O)[O-])cc2c1=O
→ 1.6	0.68	i	22	16	2.4	-4	5.9	4
#14 CCCCN(CC)CCCNC(=O)c1ccc(CS(=O)(=O)c2ccccc2C)o1
→ -2.1	0.68	i	9	9	3.3	-17	-1.7	6
#15 COc1ccc(CC(N)c2csc(Nc3cc(NCc4ccco4)ncn3)n2)cc1 (stereo not drawn)
→ /	/	i	-1	-2	3.3	/	5.2	/
#16 COc1ccc(OC)c(NC(=O)CN2C(=O)COc3ccc(S(=O)(=O)N4CCCC4)cc32)c1
→ 2.9	0.64	i	-3	7	-1.2	-5	6.2	-3
#17 CC(=O)Nc1ccc(Cl)cc1C(=O)O
→ 2.9	0.77	/	/	/	/	-22	0.2	-4
#18 Cc1cc(N/N=C/c2ccc(O)cc2O)c2ccccc2n1
→ /	/	i	-19	-10	-5.7	97*	2.7	1
#19 NC(=O)c1cccc(S(=O)(=O)N2CC(c3ccccc3)CC2=O)c1 (stereo not drawn)
→ -0.3	0.72	i	8	12	0.9	/	3.9	-1
#20 CCN(CC)C(=O)Cn1c(=O)n(-c2ccc(CC(=O)NCc3ccccc3)cc2)c(=O)c2sccc21
→ 1.5	0.66	i	5	4	-0.3	/	2.6	-3

Entries of single compounds, quoted from the list. Screens in order: UCH37 inh	E coli growth	FGF22 binding	Ecoli rRNA inh	Ecoli rRNA inh OD600	Ecoli rRNA inh RFP	ALR H2O2 inh	HNF4A DNA FP	Beta2AR agonist
CC(=O)c1ccc(N2CCN(S(=O)(=O)c3cn(C)cn3)CC2)cc1 is listed as 2.3	0.65	i	2	1	-1.0	-1	-1.5	3
COc1ccc(CC(N)c2csc(Nc3cc(NCc4ccco4)ncn3)n2)cc1 (stereo not drawn) is listed as /	/	i	-1	-2	3.3	/	5.2	/
FC(F)(F)c1ccc(-c2noc(CN3CCCN(C4CCCCC4)CC3)n2)cc1 is listed as /	/	i	2	-2	-4.0	11	3.9	-4
CC1C(=O)N2CCCc3cc(S(=O)(=O)N4CCC(C(N)=O)CC4)cc1c32 (stereo not drawn) is listed as -4.1	0.58	i	20	18	1.8	-3	-1.6	5
COc1ccccc1Cc1c(-c2ccc(OC)c(OC)c2)nc2ccc(C)cn12 is listed as /	/	i	-8	-18	-1.1	/	-1.1	/

(further entries)
Below each SMILES: UCH37 inh	E coli growth	FGF22 binding	Ecoli rRNA inh	Ecoli rRNA inh OD600	Ecoli rRNA inh RFP	ALR H2O2 inh	HNF4A DNA FP	Beta2AR agonist
#21 CN1C(=O)NC(c2ccccc2)C2=C1CN(Cc1ccco1)C2=O (stereo not drawn)
→ 3.1	0.71	i	9	11	-0.3	-1	-0.1	-9
#22 C=CCNc1nc(N(c2ccccc2)c2ccccc2)nc(-n2ccnc2)n1
→ 3.8	0.75	/	/	/	/	8	-4.0	7
#23 CC(Sc1nc2ccccc2c(=O)n1CC1CCCO1)C(=O)Nc1ccc(S(N)(=O)=O)cc1 (stereo not drawn)
→ 5.5	0.67	i	-4	-9	-2.6	-8	-3.5	-12
#24 CCOC(=O)c1cnc2c(C(=O)OC)cccc2c1NCCN1CCOCC1
→ 1.8	0.69	/	/	/	/	/	-4.3	-12
#25 CC(=O)N1CCCN(Cc2cn(-c3ccc(C)cc3)nc2-c2cccc(C)c2)CC1
→ 4.2	0.67	i	-22	-26	6.2	/	4.3	2
#26 COCCN(CCOC)Cc1cc(=O)oc2cc(C)cc(C)c12
→ /	/	i	-6	-18	-0.3	/	2.2	/
#27 N#Cc1cccnc1N1CCN(C(=O)c2ccccc2)CC1
→ -80	0.62	i	6	11	0.6	-3	-2.4	4
#28 Cc1c2cnn(CC(=O)NCCCN3CCCCC3)c(=O)c2c(C)n1Cc1ccccc1
→ -1.0	0.71	i	-13	3	-4.3	-9	6.1	-6
#29 Cc1ccc(NC(=O)COC(=O)CCc2c(C)nc3nc(N)nn3c2C)cc1C
→ -1.8	0.7	i	17	15	3.3	/	7.9	-12
#30 CCC(=O)N(C1=C(NC(C)C)C(=O)c2ccccc2C1=O)C(C)C
→ 46*	0.68	i	-14	-5	6.2	-18	0.3	5
#31 COc1cccc(CCc2nc3ccccc3c(=O)n2N)c1
→ 0.0	0.69	i	-5	-7	-2.2	-6	4.7	-15
#32 COc1cccc(CNC(=O)CCNC(=O)C2CCN(S(=O)(=O)c3ccc(F)cc3)CC2)c1
→ 1.6	0.68	i	3	-7	1.1	3	-1.1	0
#33 COc1cc(CN2c3ccccc3C(=O)CS2(=O)=O)cc(OC)c1
→ 3.9	0.71	i	12	12	5.4	/	2.2	8
#34 Cc1cc(N=Nc2ccc(Cl)cc2)cc(CN2CCCC2)c1O
→ 4.7	0.62	i	-8	-1	6.8	99*	4.9	-4
#35 CCOC(=O)N1CCC(N2CCN(c3cc(C)ccc3C)CC2)CC1
→ 1.3	0.7	i	9	9	-11	8	3.3	7
#36 CCS(=O)(=O)Nc1c(C(=O)O)[nH]c2ccccc12
→ -12	0.65	/	/	/	/	99*	0.4	-4
#37 Nc1sc(Cc2ccccc2)cc1C(=O)c1c(-c2ccccc2)[nH]c2ccccc12
→ /	/	i	-51	-80	-16	/	5.3	/
#38 c1ccc(CNn2nnnc2-c2ccccc2)cc1
→ -1.3	0.72	/	/	/	/	1	3.8	3
#39 CCc1nc(NCCO)c(C#N)c2c1CCCC2
→ -26	0.71	i	-14	4	0.4	/	-3.6	4
#40 COc1ccc(-c2oc(=O)n(C)c2-c2ccc(OC)cc2)cc1
→ -7.6	0.69	i	-29	-51	-6.3	2	0.0	-10
#41 Cc1cccc(NS(=O)(=O)c2ccc(C)c(C(=O)NCC(c3ccco3)N3CCCCC3)c2)c1 (stereo not drawn)
→ 3.9	0.71	i	0	-6	5.6	/	1.9	3
#42 CC1(C)CC(NC(=O)N2c3ccccc3Sc3ccccc32)CC(C)(C)N1
→ 5.2	0.71	i	3	2	0.8	99*	0.7	-7
#43 CCN(CC)C(=O)CSc1nc2ncc(Cl)cc2[nH]1
→ 2.9	0.77	/	/	/	/	-7	-35	-3
#44 Oc1ccc(Cl)cc1C1=NNC(c2ccc(Cl)cc2)C1 (stereo not drawn)
→ 2.8	/	i	-57	-80	-28	0	5.2	6
#45 O=S(=O)(Nc1cccnc1)c1ccc(Cl)c(C(F)(F)F)c1
→ 5.5	0.69	/	/	/	/	-5	1.8	13
#46 Cn1cccc1/C=C1\SC(=O)N(c2ccc(O)cc2)C1=O
→ 0.2	/	/	/	/	/	-3	-5.5	12
#47 Cc1cc(Cl)cc(C)c1OCCn1ccnc1
→ -0.3	0.63	i	-18	-28	-5.7	-25	-0.3	-6
#48 CCOC(=O)C1CCCN(C(=O)c2ccccc2[N+](=O)[O-])C1 (stereo not drawn)
→ 0.4	0.66	i	26	12	-1.1	-1	2.0	-3
#49 Cc1cc(C(=O)Nc2ccc3ccccc3c2)c(C)o1
→ 3.7	0.65	i	-22*	-14*	-1.7*	/	-1.7	41
#50 CCCCN(C=O)c1c(CC)nc2c(OCc3ccc(S(C)(=O)=O)cc3)cccn12
→ /	/	i	6	9	-1.3	/	0.3	/
#51 CCOc1cc(C(=O)NC2=NCCS2)cc(OCC)c1OCC
→ -0.8	0.64	i	7	0	0.2	1	-1.3	5
#52 CC(C)(C)C(=O)CN1C(=O)C2(OCCO2)c2ccccc21
→ -0.9	0.69	/	/	/	/	-2	-4.2	6
#53 COc1ccccc1/C=C/C=N/n1c(C)nnc1C
→ /	/	/	6	6	-3.8	-13	-3.2	3
#54 Cc1c(C)c(C)c(CN2CCCC2)c(C)c1C
→ 1.4	0.69	i	14	-1	2.5	-7	-0.8	-2
#55 CC[C@H](C)[C@H](NC(N)=O)C(=O)NCCc1ccc(Cl)cc1Cl
→ 0.7	0.66	i	-3	4	-5.1	-11	-2.2	0
#56 CCN(CC(=O)NCc1cccs1)C(=O)c1ccc(-c2cccc(C(F)(F)F)c2)o1
→ 1.3	0.62	i	-3	8	-0.3	1	-2.2	3
#57 CCCCN(C(=O)Cc1ccc(S(=O)(=O)N2CCOCC2)s1)c1c(N)n(CCCC)c(=O)[nH]c1=O
→ 4.5	0.7	i	10	20	-0.8	14	1.5	5
#58 Cc1cc(C(=O)N/N=C\c2ccc(COc3ccc([N+](=O)[O-])cc3)o2)ccc1[N+](=O)[O-]
→ /	/	/	/	/	/	1	-0.5	2
#59 CN(C)S(=O)(=O)c1ccccc1N=C=S
→ 0.6	0.66	i	5	12	0.8	/	-1.8	7

High-throughput results (PubChem BioAssay)
